Assay outcomes deposited in PubChem by several laboratories.
PrP 5UTR inh: suppresses PrP 5' UTR mRNA reporter expression; cell-based PrP 5' UTR mRNA reporter, plate reader; inhibition, % (no concentration beside the values); 340,000 compounds, 0.35% hits; AID 488862;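 active = every replicate at 50% or more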;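 note: 0 = median of the neutral control wells; tested in H4 reporter cells; numbers are from one replicate; inactives centre near -14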
BJeLR viability: kills HRASV12-expressing BJeLR cells. BJeLR (HRASV12) viability, CellTiter-Glo ATP luminescence, 48 h; reference of the scale not given here. inhibition, % (test concentration not listed). 300,000 compounds, 0.17% hits;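 active = replicate mean above 50%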;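 note: 50 nL library stock added to about 25 µL; numbers are from one replicate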
Mtb hypoxia rep: Mtb hypoxia fluorescent reporter inhibition; M. tuberculosis hypoxia-regulated fluorescent reporter, fluorescence; fluorescence inhibition, % (concentration not given with the values); 300,000 compounds, 0.1% hits; AID 1159583;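 active = 35 to 45% if threefold the growth effect, above 45% if 1.5-fold the growth effect; inactive = the rest, general growth blockers included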;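 note: wells of about 50 µL received 100 nL stock; 0% = vehicle wells and 100% = reference inhibitor wells; whole bacteria with a GFP reporter of the hypoxia response; strong numbers were not always called active; many hits fall short of the cut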
Sa ugtP lethal: compounds lethal to S. aureus RN4220 ugtP deletion mutant | OD600 growth, 16 h; some inactives read as strong as hits | growth inhibition, % (no concentration beside the values) | 330,000 compounds, 0.54% hits | AID 1259309;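 active = z-score under -3 and OD600 up to 0.15 on both plates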;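 note: plate controls were untreated wells for no effect and antibiotic for full effect; wells of about 80 µL received 100 nL stock; the first replicate is given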
Autofluor counter: counter-screen for toxin protease inhibitors: compound fluorescence. compound autofluorescence counterscreen, microsphere flow cytometry; active compounds read high. fluorescence intensity (test concentration not listed). 360,000 compounds, 3.1% hits. AID 624483;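 active = at least 3 SD above the mean of all compounds, about 16000 in these data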;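 note: 100 nL of 1 mM stock went into each well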
Sa RN4220 lethal: S. aureus RN4220 growth inhibition. OD600, 16 h. inhibition, % (concentration not given with the values). 330,000 compounds, 0.33% hits. AID 1259311;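 active = z-score of -3 or lower and OD600 up to 0.18 on both plates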;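 note: plate controls were untreated cells for no effect and reference antibiotic for full effect; stock transfer was 100 nL into about 80 µL; one replicate is shown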
Mtb hypoxia rep growth: also measured in Mtb hypoxia rep; calls as there; growth inhibition, %; measured here: M. tuberculosis growth (absorbance);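 0% = vehicle and 100% = reference antibiotic; read after six days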
* marks the source's active call; other numbers are inactive results; x = not tested or not shown.

SMILES	PrP 5UTR inh	BJeLR viability	Mtb hypoxia rep	Mtb hypoxia rep growth	Sa ugtP lethal	Autofluor counter	Sa RN4220 lethal
CCN1CCc2c(C#N)c(N3CCOCC3)nc(N3CCOCC3)c2C1	-14.4	9.3	x	x	-2.2	5031	2.0
CCOc1ccc2[nH]c3ncccc3c(=O)c2c1	2.3	-1.7	11.8	4.2	4.7	2844	3.0
Cc1ccnc(NC(=O)CCC(=O)N(CC(=O)NCC2CCCO2)Cc2ccc(F)cc2)c1 (stereo unspecified)	-47.5	x	x	x	14.4	4127	-2.3
O=C(NCCCN1CCOCC1)c1onc(CSc2ccc(F)c(F)c2)c1C(=O)NCCCN1CCOCC1	-10.4	0.1	11.1	9.9	3.1	3552	5.9
CCC1(c2ccc(Cl)cc2)NC(=S)N(c2ccc(C)cc2)N1 (stereo unspecified)	-55.2	7.5	1.5	-10.0	-21.7	2153	-1.7
CCn1cc(S(=O)(=O)CC(=O)NC2CCCCC2)c2ccccc21	-8.3	-13.4	12.7	17.4	6.3	8858	5.1
CC(C)Oc1ccc(C=NNC(=O)C(CSCc2ccccc2)NC(=O)c2ccc([N+](=O)[O-])cc2)cc1 (stereo unspecified)	x	x	11.2	6.9	-11.4	x	-0.8
O=C(CCC(=O)NNC(=O)Nc1cccc(Cl)c1)NCc1ccccc1	-4.1	-16.6	10.6	14.0	0.6	3885	1.4
c1cncc(-c2nn3c(Cn4nnc5ccccc54)nnc3s2)c1	0.2	1.2	4.2	1.9	5.2	16144*	3.1
CC1(C)Cc2c(c(-c3ccco3)nc3sc4c(NCCN5CCOCC5)ncnc4c23)CO1	-15.2	-0.3	6.6	10.5	-18.2	2783	6.6
O=C(COC(=O)/C=C/c1ccc(OC(F)F)cc1)NC1CCCCCCC1	-13.3	10.2	0.7	6.9	4.6	5693	2.6
O=C(Nc1ccccc1)NC(Cc1ccc(O)cc1)C(=O)O (stereo unspecified)	6.2	1.0	12.8	6.3	9.8	3496	5.0
O=C(CN1C(=O)C2C3C=CC(C3)C2C1=O)Nc1nncs1 (stereo unspecified)	-9.5	0.0	13.0	-3.8	3.7	2615	5.0
COc1cccc(/C=N\n2c(C)nnc2C)c1OC	-11.2	1.8	x	x	x	3061	x
COc1ccc(-c2noc(CSc3nc4ccccc4c(=O)n3-c3ccccc3)n2)cc1OC	-8.7	4.6	0.6	10.9	-9.9	3117	6.1
CC(=O)c1ccc(NS(=O)(=O)c2cc3c(cc2C)N(C(C)=O)CCO3)cc1	0.6	-3.0	13.6	0.6	4.1	4963	1.3
COCCNC(=O)c1cc2sc3ccccc3c2s1	-74.4	-10.1	-78.0	-8.1	-10.7	4045	3.1
O=C(Nc1ccc(OC(F)F)cc1)c1cc(S(=O)(=O)N2CCOCC2)ccc1N1CCCC1	5.7	x	10.1	10.9	-1.4	4243	-0.7
O=C(c1ccco1)N1CCCC(c2nc3c(nnn3Cc3ccc(Cl)cc3Cl)c(=O)[nH]2)C1 (stereo unspecified)	-18.5	-7.1	-9.7	-6.3	12.7	3630	9.4
O=C(Nc1ccc2sccc2c1)c1ccc(Cl)s1	-92.5	9.7	x	x	4.4	4097	-2.7

The list goes on, overlapping the part above by four compounds.
SMILES	PrP 5UTR inh	BJeLR viability	Mtb hypoxia rep	Mtb hypoxia rep growth	Sa ugtP lethal	Autofluor counter	Sa RN4220 lethal
COCCNC(=O)c1cc2sc3ccccc3c2s1	-74.4	-10.1	-78.0	-8.1	-10.7	4045	3.1
O=C(Nc1ccc(OC(F)F)cc1)c1cc(S(=O)(=O)N2CCOCC2)ccc1N1CCCC1	5.7	x	10.1	10.9	-1.4	4243	-0.7
O=C(c1ccco1)N1CCCC(c2nc3c(nnn3Cc3ccc(Cl)cc3Cl)c(=O)[nH]2)C1 (stereo unspecified)	-18.5	-7.1	-9.7	-6.3	12.7	3630	9.4
O=C(Nc1ccc2sccc2c1)c1ccc(Cl)s1	-92.5	9.7	x	x	4.4	4097	-2.7
COc1ccc(Br)cc1/C=N/NC(=O)c1cccc(S(=O)(=O)N2CCOCC2)c1	-16.2	-4.7	x	x	x	4479	x
Cc1c(NC(=O)CN2CCN(c3ccccc3)CC2)c(=O)n(-c2ccccc2)n1C	-15.2	4.8	-4.7	-3.7	-1.7	3372	2.8
Cc1ccc(Nc2ncc3c(=O)[nH][nH]c(=O)c3n2)cc1	-9.3	x	7.4	2.9	0.4	3146	6.9
Nc1ccc(C(=O)N2CCCC2)cc1	-16.4	1.1	3.0	8.1	5.8	10087	2.0
Cc1c(NCc2ccncc2)cccc1C(=O)O	-5.7	-6.8	2.8	9.0	9.9	4139	-5.2
CSc1nncn1/N=C/c1cc(Cl)ccc1F	-9.4	-4.0	x	x	x	8906	x
Cn1c(=O)n(CCO)c(=O)c2c1nc(Br)n2Cc1ccccc1	-11.8	0.3	2.9	0.0	1.3	3798	3.0
COc1cccc2[nH]c3ccccc3c(=O)c12	-31.5	-8.6	21.8	11.9	2.8	3653	4.0
CC(NC(=O)c1ccncc1)C(C)(C)C (stereo unspecified)	-23.3	-10.7	13.7	8.6	3.6	21180*	5.9
CCN(C(=O)COC(=O)c1ccccc1Nc1cccc(C)c1C)C1CCS(=O)(=O)C1 (stereo unspecified)	1.2	-3.8	x	x	-0.1	4704	3.3
CN(C)C(=O)CSc1ncnc2scc(-c3ccccc3)c12	-22.9	-0.8	12.7	0.0	9.4	4713	11.2
COc1ccc(OCCOc2ccc(N(C)S(=O)(=O)c3ccccc3)cc2)cc1	x	x	7.2	-6.3	2.9	5474	7.7
CCCN(CC1CC1)c1nc(N)c2c(N)nc(OC)cc2c1C#N	39.7	-5.7	x	x	-13.4	3032	5.7
C/C(=N\NC(=O)c1c(Cl)cnn1C)c1cccc(NC(=O)C(C)C)c1	7.5	-1.0	x	x	x	2437	x
CCc1cc2ccccc2nc1SCC(=O)Nc1cc(OC)c(OC)cc1C(=O)O	-23.7	2.1	x	x	x	2523	x
Cc1noc(C)c1NC(=O)Nc1cccc2c1OC(CN(C)C(=O)NC1CCCCC1)C(C)CN(C(C)CO)C2=O (stereo unspecified)	x	x	16.0	9.9	-0.9	x	-1.0
CCC(C)C(=O)Nc1cc(Cl)ccc1C(=O)O (stereo unspecified)	29.5	4.2	10.6	15.4	4.6	4561	15.9
COc1ccc(S(=O)(=O)Nc2cc(Cl)ccc2OC)cc1	-14.8	20.1	5.1	7.7	-3.1	9867	11.5
CC(NS(=O)(=O)c1ccc(CCC(=O)N2CCN(C)CC2)cc1)c1ccccc1 (stereo unspecified)	-23.1	-3.3	6.1	6.8	5.1	9303	3.1
CCOC(=O)C1CCN(S(=O)(=O)c2ccc3c(c2)N(C(C)=O)CCO3)CC1	-29.9	6.7	10.6	-2.3	0.8	5592	1.7

Some of the entries so far, with each value named:
CCCN(CC1CC1)c1nc(N)c2c(N)nc(OC)cc2c1C#N
  PrP 5UTR inh: 39.7	BJeLR viability: -5.7	Mtb hypoxia rep: x	Mtb hypoxia rep growth: x	Sa ugtP lethal: -13.4	Autofluor counter: 3032	Sa RN4220 lethal: 5.7
C/C(=N\NC(=O)c1c(Cl)cnn1C)c1cccc(NC(=O)C(C)C)c1
  PrP 5UTR inh: 7.5	BJeLR viability: -1.0	Mtb hypoxia rep: x	Mtb hypoxia rep growth: x	Sa ugtP lethal: x	Autofluor counter: 2437	Sa RN4220 lethal: x

Next compounds
SMILES	PrP 5UTR inh	BJeLR viability	Mtb hypoxia rep	Mtb hypoxia rep growth	Sa ugtP lethal	Autofluor counter	Sa RN4220 lethal
CN(C)C(=S)Nc1ccc(Br)cc1Cl	-23.2	6.0	12.3	-0.7	-0.9	3853	5.2
O=C(CN(C(=O)CCC(=O)Nc1ccccn1)c1ccc(F)cc1)NCc1ccco1	-20.9	10.4	2.8	7.6	2.4	3334	4.5
O=S(=O)(NCCCO)c1ccc2c(c1)Cc1cc(S(=O)(=O)NCCCO)ccc1-2	-20.9	1.4	0.8	9.1	6.3	3234	2.4
CCCCCCOC(=O)Cc1c(C)nc(N)[nH]c1=O	-28.3	-1.1	8.1	2.6	2.9	6038	2.6
O=C(O)CCC(NS(=O)(=O)c1ccc(N2CCCC2=O)cc1)C(=O)O (stereo unspecified)	-32.5	-14.6	4.1	7.9	4.9	10850	2.3
CCOc1ccc(Nc2nc3ccccc3n2C)cc1	-85.6	-2.7	-12.2	-4.1	3.1	3576	1.0
Cc1ccc(C(=O)N2CCCCC2C(=O)O)cc1S(=O)(=O)N1CCCCC1 (stereo unspecified)	-17.8	x	5.2	11.2	-0.4	3607	-1.1
COc1ccc(CCNC(=O)C2CCC(=O)N2Cc2ccccc2Cl)cc1OC (stereo unspecified)	-23.4	9.9	15.7	4.6	1.2	3434	1.2
Cc1occc1C(=O)NNC(=O)C(c1ccccc1)c1ccccc1	-5.4	-3.2	3.5	10.6	-4.0	10933	1.7
Cc1ccccc1OC(C)C(=O)N1CCC(Cc2ccccc2)CC1 (stereo unspecified)	-5.5	-0.9	2.1	5.4	-14.2	5975	19.7
COc1ccc(CNC(=O)c2cccc(S(=O)(=O)N3CCCCC3)c2)cc1OC	-4.4	x	7.5	8.1	5.5	5257	2.3
COc1ccc(-c2ccc(CCC(=O)O)o2)cc1	-29.6	-6.4	2.4	16.4	-2.4	3517	1.0
COC(=O)C=Cc1ccc2c(c1)S(=O)(=O)N(c1cccc(OC)c1)C2CC(=O)OC (stereo unspecified)	x	x	6.9	16.6	1.2	x	10.3
COc1cc(C=NNC(=S)NCCN2CCOCC2)cc(OC)c1OC	x	x	11.2	7.9	8.5	x	0.9
O=C(COC(=O)c1cccc2ccccc12)Nc1ncc(C(F)(F)F)cc1Cl	-3.4	-12.6	8.9	6.2	-10.8	4396	3.8
O=C1C[C@@H]2CCN3C(=O)CCC[C@@H]([C@H]23)[C@@H]1Cc1ccccc1	-7.3	x	0.3	-0.3	-0.4	3842	0.5
COc1cccc(NC(=O)c2ccc(NC(=O)C(C)(C)C)cc2)c1	-38.3	1.1	x	x	3.5	2026	5.0
CCC(=O)Oc1ccc(C(=O)Nc2ccccc2C(=O)NCC(C)C)cc1	2.8	-0.2	7.7	6.5	9.5	2149	1.2
COc1ccc(NC(=O)c2cc(S(=O)(=O)N3CCc4ccccc43)cn2C)cc1	-20.7	-3.4	3.8	3.3	-2.1	4352	-6.0
CCOc1ccc(NC(=O)C2CCCN(S(=O)(=O)c3cccc4nsnc34)C2)cc1 (stereo unspecified)	-29.4	-6.7	13.5	4.6	9.1	8401	2.2
Cc1ccc(Nc2nc3ccccc3c(=O)s2)cc1C	9.7	-26.5	9.2	4.5	-14.5	1954	-0.5
CCC1=Nc2cc(C(=O)NCCN3CCOCC3)ccc2Sc2ccccc21	5.6	4.3	5.9	5.2	11.3	4982	7.3
Cc1ccc2[nH]c(=O)c(CN(CCCN(C)C)C(=S)NCCc3ccccc3)cc2c1	-15.5	6.9	5.7	8.5	2.5	3932	7.8
COc1ccc(/C=N/NC(=O)c2nc(-c3ccccc3)n(-c3ccccc3)n2)cc1	6.6	-11.2	x	x	x	10254	x
COc1ccc(-c2noc(CCCC(=O)N3CCOCC3)n2)cc1	-8.8	5.4	-8.5	-2.2	5.5	3977	11.8
O=C(CCl)N=c1sccn1Cc1cccc2ccccc12	-9.9	9.5	16.9	26.5	-10.0	4093	13.3
O=C(NCCc1ccccc1)C1CCN(C(=O)Nc2ccccc2)CC1	-25.6	-5.7	-2.6	7.9	1.3	x	-2.1
Cc1cc(C)nc(NC(=O)c2c(F)c(F)c(F)c(C(=O)Nc3cc(C)cc(C)n3)c2F)c1	x	2.5	5.0	4.0	11.4	4073	3.2
NS(=O)(=O)c1cc(C(=O)NCCc2ccccn2)ccc1Cl	-1.9	6.2	-8.3	-2.2	7.3	3614	3.2
COc1ccc(CNC(=O)COC(=O)CC2CC3CCC2C3)cc1OC (stereo unspecified)	-2.3	-0.9	6.7	3.6	5.6	2524	0.1
O=c1c2ccccc2nc(COc2ccccc2)n1/N=C/c1ccc(O)c(O)c1	-5.8	11.2	x	x	x	4259	x
CC(=O)CCc1oc2ccc(NC(C)=O)cc2c1-c1ccc(C)o1	-11.2	-1.1	x	x	x	2939	x
CCS(=O)(=O)c1nc(S(=O)(=O)c2ccc(Cl)cc2)c(N2CCOCC2)s1	-20.9	10.1	-4.2	-3.6	2.6	6397	0.2
COc1ccc(C(=O)C2CCCN(C(=O)CCC3=NNC(=O)CC3)C2)c(C)c1 (stereo unspecified)	9.3	3.3	-8.0	-7.4	5.3	4548	4.6
O=C(NCc1cccnc1)c1ccc(-c2cc3ccccc3oc2=O)cc1	-54.5	66.3*	10.4	8.3	2.7	2416	0.4
CCOC(=O)C1=C(C)N(c2ccccc2)C(=O)C1CC(=O)O (stereo unspecified)	-17.9	-3.9	x	x	3.0	4120	1.4
